# Menin MLL FP FL = displaces fluorescein MLL peptide from human menin | Fluorescence polarization, fluorescein-MLL peptide displacement from menin | FP activity change, % at 61.4 µM | 290,000 tested, under 10 active | AID 1766; inconclusive = falling polarisation curve, or a change in total fluorescence; inactive = total fluorescence flat and polarisation flat or rising; no compound was filed as active; the % refers to the polarisation; negative = inhibition;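 further: % of control where 0% means no effect; inhibitors lower the polarisation; unlabelled MLL peptide was the positive control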
# gsp antag = gsp mutant antagonism; gsp-mutant cells, cAMP HTRF, 30 min; control for the full effect not named in the record; Potency, µM (titrated, usually from 76.9 µM), for the others: top-dose activity change, negative = inhibition, usual class: inhibitors; 340,000 tested, 0.4% active; active = falling curve of any shape with a large fitted effect; inconclusive = falling curve, mostly with a smaller effect; inactive = flat or rising curve; cell line not stated here;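 further: intracellular cAMP measured with PDE inhibitor Ro 20-1724 present during compound exposure; potency means the concentration at half of the fitted maximal effect; on the % scale 0 is the no-effect control and ±100 the full control effect; nearly all actives have a fitted effect of over 65% in size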
#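 Measurement of cellular cAMP by homogeneous time-resolved fluorescence following a 30 min compound exposure at 37C. The PDE inhibitor […] was present throughout; the assay buffer was DPBS with 0.05% BSA and 0.005% Tween 20.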
# ClpP mod = qHTS Assay for Activators of ClpP; Potency, µM (highest dose often 57.5 µM), without a hit: at the top dose activity change, negative = active; ATP-dependent Clp protease proteolytic subunit (Bacillus subtilis (strain 168)), P80244; 340,000 tested, 1.9% active; purified B. subtilis ClpP, FRET peptide cleavage, 20 min; active = well fitted falling curve with a large enough effect; inconclusive = small, poorly fitted or top-dose-only effect; inactive = no such curve, though single readings can be large or run the other way; further: potency means the concentration at half of the fitted maximal effect; the source files actives as falling curves though it sought activators and does not explain the sign; nearly all actives have a fitted effect of over 65% in size; many hits overshoot -100%
# Target sequence (P80244 whole entry, looked up): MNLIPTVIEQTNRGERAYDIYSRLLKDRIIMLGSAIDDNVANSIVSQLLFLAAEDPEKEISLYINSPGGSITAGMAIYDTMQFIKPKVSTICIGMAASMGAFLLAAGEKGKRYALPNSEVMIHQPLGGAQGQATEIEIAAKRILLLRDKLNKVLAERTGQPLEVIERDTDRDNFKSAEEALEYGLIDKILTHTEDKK
#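 FRET quenching reversal measured ClpP activation: 10 microg/mL B. subtilis ClpP at pH 8 with the FRET-FV decapeptide, read at 430 nm after 320 nm excitation. The 20-min minus 0-min signal was scaled between DMSO/no-enzyme wells and ADEP (5.8 microM final).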
# gsp ag = agonists of gsp mutant (McCune-Albright syndrome). gsp mutant cells, cAMP HTRF, 30 min; control for the full effect not named in the record. Potency, µM (highest dose often 76.9 µM), inactives show at the highest dose activation (cAMP increase), hits mostly activators. 340,000 tested, 0.13% active. AID 624287; active = well fitted activation curve with a large enough effect; inconclusive = small, poorly fitted or top-dose-only effect, or another doubt; inactive = no such curve, though single readings can be large or run the other way; cell line not stated here;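 further: phosphodiesterase inhibitor Ro 20-1724 added with compounds to block cAMP breakdown; potency means the concentration at half of the fitted maximal effect; nearly all actives have a fitted effect of over 60% in size; about a fifth of the inactives were tested at one dose only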
#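 Cells stably selected in G418 were plated at 2000/well, grown 16-24 hr, then given compounds in DMSO with the PDE inhibitor […] (300 uM solution added) for 30 min at 37C; cAMP was read by HTRF.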
# Sfp inh = Sfp phosphopantetheinyl transferase inhibition | Q9F4F7 | Biochemical Sfp PPTase activity, qHTS | Potency, µM, for inactives: max response, negative = inhibition, actives largely listed as inhibitors | 310,000 tested, 3.5% active | AID 1490; active means well fitted inhibition curve with a large enough effect; inconclusive means small, poorly fitted or top-dose-only effect, or another doubt; inactive means no such curve, though single readings can be large or run the other way;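 further: the enzyme is Sfp with the accession as filed and its product quenches rhodamine fluorescence; potency means the concentration at half of the fitted maximal effect; 0% = enzyme reaction without inhibitor and -100% = no enzyme wells; top concentration of the series not given in the record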
#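 Compounds were incubated with enzyme (final 15 nM) for 15 min at room temperature before substrate addition started the reaction. Fluorescence at 525 nm excitation, 598 nm emission was recorded immediately and after 30 minutes.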
# TRPV1 potentiator = human TRPV1 potentiation; Q8NER1; TRPV1-expressing cells, Fluo-8 calcium influx, capsaicin EC20 potentiation; host cell line not named in the record; control for the full effect not named in the record; potentiation, % at 8.33 µM; 320,000 tested, 0.02% active; active means potentiation above 80%; inconclusive means 30% to 80%; inactive means below 30%; further: 0% is about no effect
# Target sequence (Q8NER1 whole entry, looked up): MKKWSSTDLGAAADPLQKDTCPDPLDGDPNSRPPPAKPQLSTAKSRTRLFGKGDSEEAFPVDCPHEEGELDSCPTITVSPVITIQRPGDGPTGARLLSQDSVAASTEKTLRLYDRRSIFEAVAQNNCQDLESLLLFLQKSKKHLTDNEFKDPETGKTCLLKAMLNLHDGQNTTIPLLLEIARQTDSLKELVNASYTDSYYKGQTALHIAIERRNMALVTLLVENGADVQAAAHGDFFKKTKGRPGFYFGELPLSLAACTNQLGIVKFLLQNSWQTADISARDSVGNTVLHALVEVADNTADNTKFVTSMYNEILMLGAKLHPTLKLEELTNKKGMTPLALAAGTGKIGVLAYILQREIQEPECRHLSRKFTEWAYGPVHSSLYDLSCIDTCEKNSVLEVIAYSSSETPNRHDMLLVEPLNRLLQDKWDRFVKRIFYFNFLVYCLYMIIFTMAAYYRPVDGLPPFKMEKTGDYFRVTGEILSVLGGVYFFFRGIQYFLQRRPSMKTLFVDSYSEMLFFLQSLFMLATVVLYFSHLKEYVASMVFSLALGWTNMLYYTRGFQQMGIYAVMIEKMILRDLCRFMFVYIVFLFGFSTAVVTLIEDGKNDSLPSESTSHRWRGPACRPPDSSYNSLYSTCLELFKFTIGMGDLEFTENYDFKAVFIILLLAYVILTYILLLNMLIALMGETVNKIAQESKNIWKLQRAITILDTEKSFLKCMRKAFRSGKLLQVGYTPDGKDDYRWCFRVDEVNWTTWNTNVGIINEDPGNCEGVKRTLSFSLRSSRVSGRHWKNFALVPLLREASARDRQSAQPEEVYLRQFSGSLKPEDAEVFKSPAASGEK
#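 Fluo-8 calcium influx in TRPV1-expressing cells, kinetic read (ex 480/em 520 nm). Compound added and read 3 min for agonist activity, followed by capsaicin at EC20 final and 2 min further read for enhancement.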
# CtBP-E1A blk = blocks the CtBP interaction with E1A; AID 651724; AlphaScreen GST-E1A/His-CtBP binding, 1536-well; stronger effect = lower value; control for the full effect not named in the record; 340,000 tested, 0.49% active; activity change, % (no concentration beside the values); in the data active means activity change below about -65%; inconclusive means about -30% to -65%; inactive means above about -30%; further: on the % scale 0 is the no-effect control and ±100 the full control effect; compound concentration not given in the record
#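 Steps: dispense buffer (Tris pH 8.0, NaCl 300 mM, TCEP 1 mM, BSA, Tween 20); add 5X protein mix (GST-E1A, His-CtBP, 125 nM each); pin 23 nL compound; 2 h at 37 °C, dark; add 5X beads (50 ug/mL); 1 h; read.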
# * marks the source's active call; other numbers are inactive results; u = inconclusive; x = no result given; [ ] = remark or other dose. Rows were taken by chance, and some 5.3% of all compounds hit somewhere here.
cpd	molecule	Menin MLL FP FL	gsp antag	ClpP mod	gsp ag	Sfp inh	TRPV1 potentiator	CtBP-E1A blk
1	Cc1cccc(NC(=O)CSc2cc(C)c(C#N)c3nc4ccccc4n23)c1	1.3	-19%	-7.6%	-8%	-12%	5	x
2	Cc1ccc(S(=O)(=O)N(C)c2ccc(N)cc2)cc1	5.3	3%	-2.3%	10%	20%	1	-3
3	CC(C)(C)c1ccc(Cn2nnc3c(=O)[nH]c(C4CCCN(C(=O)Cc5cccs5)C4)nc32)cc1 (centres undefined)	0.9	-18%	-2.0%	8%	-15%	-1	-5
4	O=C(Nc1cccc(F)c1)c1sc(Cl)nc1-c1ccccc1	3.5	-5%	2.7%	-3%[15.4 µM]	10%	2	1
5	COc1ccc(CNC(=O)CN(c2cc(C)cc(C)c2)S(=O)(=O)c2c(C)noc2C)cc1	-1.6	-5%	-0.3%	-18%	12%	x	5
6	O=S(=O)(NCc1cn2ccccc2n1)c1cccs1	4.0	8%	-6.8%	u	-9%	5	4
7	COc1ccc(/C=C(\C#N)C(=O)OCC(=O)N(C)C2CCS(=O)(=O)C2)cc1 (centres undefined)	x	6%	-8.8%	-32%[inhibitor]	x	u	-17
8	Cc1nc(S(=O)(=O)Cc2ccccc2Cl)nc2c1CCC2	0.7	-4%	x	7%[15.4 µM]	-5%	28	7
9	CC(=O)NC1CSCC1OC(C)=O (centres undefined)	2.9	2%	0.4%	-59%[inhibitor]	12%	29	5
10	CCN(CC)S(=O)(=O)c1ccc(N2CCOCC2)c(NC(=O)CSCc2c(C)noc2C)c1	x	18%	0.5%	u	x	x	1
11	CC(C)(C)NC(=O)NC(=O)COC(=O)CNC(=O)C1CCCCC1	-5.4	x	x	1%[15.4 µM]	9%	-1	-10
12	CN(C1=NS(=O)(=O)c2ccccc21)c1ccc(OC(=O)c2ccccc2F)cc1	x	x	1.1%	-66%[inhibitor]	x	x	8
13	CC(=O)C1CCC2C3CCC4=CC(=O)C=CC4(C)C3CCC12C (centres undefined)	x	-13%	x	1%	x	x	-2
14	O=C(NCCC(=O)N1CCC2(CC1)NCCc1[nH]cnc12)c1cccc(Br)c1	x	13%	x	17%	8%	9	1
15	O=C(CSc1ncn[nH]1)Nc1ccc(S(=O)(=O)Nc2ncccn2)cc1	-3.7	13%	0.0%	3%	19%	-15	x
16	COc1ccc(N2CCN(C(=O)c3cc4cc(Cl)ccc4[nH]3)CC2)cc1	-1.6	1%	0.9%	2%	1%	-1	3
17	CC(SCc1cc(=O)n2c([nH]c3ccccc32)c1C#N)C(=O)O (centres undefined)	u	6%	-2.1%	-16%[15.4 µM]	-4%	8	1
18	CCOC(=O)N1CCN(C(=O)CCc2c(C)nc3c(c(C)nn3-c3ccc(C)c(C)c3)c2C)CC1	5.8	7%	u	-27%	-17%	-8	6
19	COc1ccc(Cl)cc1N(CC(=O)NC1CC1)S(=O)(=O)c1ccc(C)c([N+](=O)[O-])c1	-6.6	-6%	x	17%	14%	-17	-16
20	CC(=O)c1sc(NC(=O)CS(=O)(=O)c2ccccc2)nc1C	x	-10%	-18%	1%[15.4 µM]	x	-1	12
21	CSc1ccc(S(=O)(=O)NCC(=O)OCC(=O)N(C)C2CCCCC2)cc1[N+](=O)[O-]	x	-8%	-3.1%	0%	x	10	-23
22	COc1ccc(C(=O)NC(Nc2ccccc2)C(Cl)(Cl)Cl)cc1 (centres undefined)	-0.2	u	-1.9%	22%	25%	-15	-1
23	Cc1ccc(C2C(N)C(=O)N2c2ccc(C)cc2)cc1 (centres undefined)	-0.5	3%	-0.8%	u	3%	-4	4
24	CC(=O)Nc1ccc(NC(=O)c2ccccc2N(Cc2ccccc2)S(C)(=O)=O)cc1	1.6	-7%	-10%	13%[15.4 µM]	-2%	15	-2
25	O=C(NNc1nc(-c2ccccc2)cs1)c1ccccc1	-0.7	10%	-4.4%	u	45µM*	5	9
26	O=C(Nc1nnc(-c2ccccc2)o1)Nc1ccccc1Cl	-2.0	7%	4.4%	u	-9%	-25	0
27	CCOc1cc(N2CCOCC2)c(OCC)cc1NC(=O)Cc1ccc(OC)c(OC)c1	0.9	-7%	-5.4%	-45%[inhibitor]	-21%	-8	-19
28	COC(=O)c1ccc(C2C(Oc3ccc(OC)cc3)C(=O)N2CCc2ccc(OC)c(OC)c2)cc1 (centres undefined)	0.8	-2%	1.3%	-57%[inhibitor]	-10%	-27	6
29	Cc1nc(SCC(=O)N2CC(=O)Nc3ccccc32)c2c(C)c(C)sc2n1	14	-10%	0.9%	-26%	-2%	-4	7
30	CC(C(=O)NC1CCCC1)N(Cc1ccco1)C(=O)c1snc(C(=O)NC2CCCC2)c1N (centres undefined)	-1.1	-22%	u	-28%	0%	-2	4
31	NC(=O)c1ccc[n+](CCC[n+]2cccc(C(N)=O)c2)c1	-3.8	4%	1.4%	14%	32%[activator]	3	x
32	CCN(CC)CCOC(c1ccccc1)c1ccc(C)cc1 (centres undefined)	-9.0	-3%	0.7%	-33%	-3%	-4	-1
33	O=C(Nc1ccccc1C(=O)O)c1cccc(S(=O)(=O)Nc2ccc(Br)cc2)c1	0.5	7%	-1.6%	24%	16%	-11	x
34	O=C(COC(=O)c1cc(S(=O)(=O)N2CCCCC2)ccc1N1CCOCC1)c1ccccc1	x	1%	-7.8%	-8%	x	3	6
35	N#CC1=C2Nc3ccccc3N2C(=O)NC1(c1ccccc1)C(F)(F)F (centres undefined)	-0.7	2%	-12%	22%	9%	0	1
36	COc1ccc(C(=O)c2nc3c(n2O)CCCC3)cc1OC	-1.9	-20%	0.5%	-3%	-23%	-7	7
37	O=C(COc1ccccc1)NNC(=S)NC(=O)c1ccccc1	1.4	-9%	-1.8%	-27%	u	12	1
38	Cc1cc(-c2nnc(CCC(=O)N(C)Cc3ccsc3)o2)no1	-2.8	1%	-0.2%	u	-10%	-13	4
39	COc1cc2c(cc1OC)C(SC)=NC1(CCCC1)C2	-3.3	-13%	x	u	0%	0	-8
40	Cc1ccc(-c2nnc(N3CCOCC3)c3ccccc23)cc1S(N)(=O)=O	x	-10%	x	26%	x	x	-15
41	Cc1noc(C(=O)NCc2ccc(F)cc2)c1Cl	-0.5	4%	-0.9%	-6%	4%	2	7
42	O=C(COc1ccccc1Cl)N1CCc2ccccc2C1	1.9	4%	0.4%	-3%[15.4 µM]	12%	-12	14
43	O=S(=O)(Nc1ccc(S(=O)(=O)Nc2ccccc2)cc1)c1ccccc1	-4.9	-10%	0.4%	7%	-5%	-38	2
44	Cc1cccc(NS(=O)(=O)c2cc3c4c(c2)C(C)C(=O)N4CCC3)c1 (centres undefined)	x	5%	-0.5%	23%	16%	3	4
45	CCCOc1ccc(C(=O)Nc2ccc(N3CCN(C(C)=O)CC3)cc2)cc1	2.7	-7%	-4.0%	5%	2%	-8	7
46	CCN(CC)C(=O)COc1cc(C)c(Cl)c(C)c1	-2.1	-11%	-1.2%	-6%	11%	-3	-6
47	COc1ccc(-c2nnc3n2N=C(C)CS3)cc1	2.6	3%	1.2%	5%	10%	4	0
48	O=C(OCC(=O)N1CCCC1)c1ccccc1O	3.1	14%	x	u	10%	15	7
49	COc1c(C)cc(Br)cc1C(=O)Nc1ccc(N2CCN(S(C)(=O)=O)CC2)cc1	4.0	4%	-3.0%	23%	16%	-6	7
50	COc1ccc([N+](=O)[O-])cc1N(CC(=O)N1CCN(Cc2ccccc2)CC1)S(C)(=O)=O	-2.7	-9%	-1.4%	-3%[15.4 µM]	10%	1	-14
51	COC(=O)Cn1c(C)c(C(C)=O)c(C(C)=O)c1C	-1.8	-9%	-1.6%	-12%	3%	0	-2
52	Cc1c([N+](=O)[O-])cnc(Sc2ccccc2)c1[N+](=O)[O-]	x	-6%	-3.0%	u	x	x	x
53	CC1CC(C)CN(S(=O)(=O)c2ccc(C(C)(C)C)cc2)C1 (centres undefined)	-1.0	3%	-3.8%	9%	10%	2	2
54	Cc1ccc(CS(=O)Cc2ccc(C(=O)NCCc3ccccc3)o2)cc1 (centres undefined)	x	8%	0.9%	u	7%	-18	-9

# Of the compounds above, 7 contain two or more sulfur atoms:
cpd	molecule	Menin MLL FP FL	gsp antag	ClpP mod	gsp ag	Sfp inh	TRPV1 potentiator	CtBP-E1A blk
6	O=S(=O)(NCc1cn2ccccc2n1)c1cccs1	4.0	8%	-6.8%	u	-9%	5	4
10	CCN(CC)S(=O)(=O)c1ccc(N2CCOCC2)c(NC(=O)CSCc2c(C)noc2C)c1	x	18%	0.5%	u	x	x	1
15	O=C(CSc1ncn[nH]1)Nc1ccc(S(=O)(=O)Nc2ncccn2)cc1	-3.7	13%	0.0%	3%	19%	-15	x
20	CC(=O)c1sc(NC(=O)CS(=O)(=O)c2ccccc2)nc1C	x	-10%	-18%	1%[15.4 µM]	x	-1	12
21	CSc1ccc(S(=O)(=O)NCC(=O)OCC(=O)N(C)C2CCCCC2)cc1[N+](=O)[O-]	x	-8%	-3.1%	0%	x	10	-23
29	Cc1nc(SCC(=O)N2CC(=O)Nc3ccccc32)c2c(C)c(C)sc2n1	14	-10%	0.9%	-26%	-2%	-4	7
43	O=S(=O)(Nc1ccc(S(=O)(=O)Nc2ccccc2)cc1)c1ccccc1	-4.9	-10%	0.4%	7%	-5%	-38	2
